GCN5L2 inh: qHTS Assay for Inhibitors of GCN5L2 | GCN5L2 HAT assay, ThioGlo1 CoA-SH fluorescence | Histone acetyltransferase KAT2A (Homo sapiens), Q92830 | 390,000 tested, 0.21% active | AID 504327, 2011 | Potency, µM (titrated, usually from 58.9 µM), for inactives: top-dose activity change, negative = inhibition, hits mostly inhibitors; active = well fitted inhibition curve with a large enough effect; inconclusive = small, poorly fitted or top-dose-only effect, or another doubt; inactive = no such curve, though single readings can be large or run the other way
Target sequence (Q92830 whole entry, looked up): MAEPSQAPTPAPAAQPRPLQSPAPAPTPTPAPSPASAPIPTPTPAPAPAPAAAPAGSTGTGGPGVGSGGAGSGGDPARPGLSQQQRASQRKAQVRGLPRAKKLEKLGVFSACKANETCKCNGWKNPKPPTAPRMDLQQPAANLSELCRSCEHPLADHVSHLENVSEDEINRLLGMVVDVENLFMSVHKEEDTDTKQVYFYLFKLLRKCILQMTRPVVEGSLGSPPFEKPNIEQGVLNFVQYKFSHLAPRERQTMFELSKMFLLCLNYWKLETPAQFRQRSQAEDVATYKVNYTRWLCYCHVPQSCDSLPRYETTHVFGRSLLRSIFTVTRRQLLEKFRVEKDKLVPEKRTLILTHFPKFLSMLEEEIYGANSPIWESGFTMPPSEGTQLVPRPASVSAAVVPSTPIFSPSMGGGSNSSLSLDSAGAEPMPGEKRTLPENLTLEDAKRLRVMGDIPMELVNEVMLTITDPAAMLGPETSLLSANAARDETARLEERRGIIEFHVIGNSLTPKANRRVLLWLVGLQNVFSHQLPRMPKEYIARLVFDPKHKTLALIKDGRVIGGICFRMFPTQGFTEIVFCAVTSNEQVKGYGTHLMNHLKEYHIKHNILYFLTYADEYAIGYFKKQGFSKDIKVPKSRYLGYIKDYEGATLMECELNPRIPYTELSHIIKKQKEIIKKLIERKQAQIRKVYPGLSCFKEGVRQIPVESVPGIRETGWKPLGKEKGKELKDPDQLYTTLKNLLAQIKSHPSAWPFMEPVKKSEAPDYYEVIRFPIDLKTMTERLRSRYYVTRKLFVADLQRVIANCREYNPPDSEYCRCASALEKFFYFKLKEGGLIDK
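ThioGlo1-coupled HAT assay: 20nM GCN5L2, 70uM acetyl-CoA, 75uM H3(1-25) peptide, pH 7.5. Fluorescence read at 340/540nm at start and after 20 min at room temperature.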
An asterisk follows results filed as active; ? = inconclusive; & = joins results of further samples; [ ] = remark or other dose. % is set by controls: 0 for no effect and ±100 for the full control effect; potency is the fitted concentration of half-maximal effect.

GCN5L2 inh	Structure
-10.7%	CCC(C)C(=O)O[C@H]1C[C@@H](C)C=C2C=C[C@H](C)[C@H](CC[C@@H]3C[C@@H](O)CC(=O)O3)C21 (stereo partly specified)
-18.8%	CCOc1cc(CNCc2cccs2)cc(Br)c1OCC
0.9%	Cc1cc(Cl)ccc1NC(=O)COC(=O)c1c(C)noc1C
-3.5%	Cc1ccc(CSCC(=O)NCc2ccco2)cc1
-10.9%	O=C(Cn1cc(SCc2ccc(C(F)(F)F)cc2)c2ccccc21)N1CCOCC1
-3.1%	CCOC(=O)N/N=C/c1cc(C)n(-c2cccc3ccccc23)c1C
0.5%	O=C(CC1SC(=NCCc2ccccc2)N(/N=C/c2cccs2)C1=O)Nc1ccc(Cl)cc1 (stereo unspecified)
-4.5%&-2.9%&-19.4%	C[C@]12CC[C@@H]3c4ccc(O)cc4CC[C@H]3[C@@H]1CCC2=O
-7.1%	COc1ccc(OC)c(C(=O)CSc2nnc(Cc3cccs3)n2CCc2ccccc2)c1
-12.1%	Cc1ccccc1CC(=O)N1CCCC(CNC(=O)c2ccc(F)cc2)C1 (stereo unspecified)
-15.2%[21.4 µM]	CC[C@H](C)[C@@H]1O[C@]2(CC[C@@H]1C)C[C@H]1C[C@H](CC=C(C)[C@@H](O[C@@H]3C[C@H](OC)[C@H](O[C@@H]4C[C@H](OC)[C@H](O)[C@H](C)O4)[C@H](C)O3)[C@@H](C)C=CC=C3CO[C@@H]4[C@@H](O)C(C)=C[C@@H](C(=O)O1)[C@]34O)O2
-2.9%	Nc1cc(Cl)c(N)cc1Cl
-2.5%	O=C(c1ccccc1)C(C(=O)N1CCc2ccccc2C1)n1ccccc1=O (stereo unspecified)
-7.8%	C=C(C)c1cccc(C(C)(C)NC(=O)NC2CCCC2)c1
-10.0%	Cn1c(=O)c([N+](=O)[O-])c(NCC2CCCO2)c2ccccc21 (stereo unspecified)
-8.4%	COc1cc(Nc2nc(SCc3ccccc3Cl)nc3ccccc23)cc(OC)c1
-3.9%	Cc1ccc(C)c(Cn2c(=O)n(Cc3ccco3)c(=O)c3oc4ccccc4c32)c1
-13.9%	Cc1nc(C)c(-c2ccc(SCC(=O)Nc3cccc(Cl)c3C)nn2)s1
-7.7%	CCOc1cc(N2CCOCC2)c(OCC)cc1NC(=O)COC(=O)/C=C/c1ccc(OC(F)F)cc1
-0.4%	Cc1nn(C)c(C(=O)Nc2ccn(C34CC5CC(CC(C5)C3)C4)n2)c1[N+](=O)[O-]
0.6%	Cc1ccc(C)c(S(=O)(=O)Nc2ccc(C(=O)N3CC(C)OC(C)C3)cc2)c1 (stereo unspecified)
-3.3%	CC(C)(C)c1ccc(S(=O)(=O)NCc2ccc3c(c2)CCN3C(=O)c2ccccc2)cc1
-11.1%	COc1ccc(-n2cnnc2SCC(=O)Nc2cccc([N+](=O)[O-])c2)cc1
-11.7%	Cc1cccc(N2CCN(C(=O)CCC(=O)N3Cc4ccccc4Oc4ncccc43)CC2)c1C
-2.4%	COc1ccccc1CCNC(=O)CC1C(=O)NCCN1CCCc1ccccc1 (stereo unspecified)
-1.1%	C=CCSc1nc2ccccc2[nH]1
1.0%	COc1ccc(-c2nn(-c3ccccc3)cc2C(=O)NC(=S)NNC(=O)c2ccncc2)cc1
2.4%	Cc1ccc(C)c(NC(=O)C(Sc2ncnc3ccccc23)c2ccccc2)c1 (stereo unspecified)
-5.5%	Nc1cc(=O)[nH]c(SCC(=O)N2CCN(S(=O)(=O)c3ccc4ccccc4c3)CC2)n1
-3.0%	C=CCN=C1S/C(=C\N(C)C)C(=O)N1S(=O)(=O)c1ccc(C)cc1
-11.9%	O=C(NCCCN1CCCC1=O)Nc1ccccc1Cl
-3.0%	O=C(COc1ccc(Cl)cc1Cl)Nc1ccc(C(=O)OC2CCCCC2)cc1
-4.9%	CCOc1nc(C)ccc1-c1noc(-c2ccccn2)n1
-8.9%	Fc1ccc(NC(=S)Nc2ccccc2N2CCOCC2)cc1Cl
-0.9%	O=C(C1CCN(S(=O)(=O)N2CCC3(CC2)OCCO3)CC1)N1CCCCC1
-10.5%	CC(OC(=O)Cc1c[nH]c2ccccc12)C(=O)NC1CCCCC1C (stereo unspecified)
-1.5%	CCc1ccc(S(=O)(=O)NCCc2cn3ccsc3n2)s1
-3.0%	COC(=O)CNC(=O)C(C)NC(=O)OCc1ccccc1 (stereo unspecified)
-1.5%	COc1cc2[nH]c(=S)n(C3CC3)c(=O)c2cc1OC
-2.5%	O=C(NC1CCCC1)C1CCN(S(=O)(=O)c2cccc3cccnc23)CC1
-2.8%	CCOC(=O)C1CCN(S(=O)(=O)c2cc(Cl)c(C)cc2OC)CC1
-5.1%	O=C(Nc1nccs1)C1CC(=O)N(CCc2ccc(F)cc2)C1 (stereo unspecified)
3.3%	CNC(=O)n1cc(C)c(-c2cccs2)n1
-12.8%	Cc1c(NC(=O)CN2C(=O)c3cccc4cccc2c34)c(=O)n(-c2ccccc2)n1C
19.6%	Cn1nc(C(F)(F)F)cc1C(=O)O
-4.3%	CN(C)S(=O)(=O)c1cccc(NC(=O)c2cc3ccccc3o2)c1
-4.9%	Cn1c(C(=O)OCC(=O)NCc2ccc(F)cc2)cc2occc21
-6.7%	Cc1csc(NC(=O)CS(=O)(=O)Cc2ccccc2)n1
-29.5%	Cc1cccc(N(O)C(=O)Nc2cccc(Cl)c2)c1
-6.6%	CCCCOc1ccc(C(=O)Nn2c(-c3cccs3)nc3ccccc3c2=O)cc1
-10.1%&-14.2%&-8.1%	O=C1CN(/N=C/c2ccc([N+](=O)[O-])o2)C(=O)N1
-1.9%	COc1ccc(C(=O)NC2CCN(C(=S)Nc3ccc(C)cc3)CC2)cc1
0.1%	COc1ccc(Cl)cc1NC(=O)CN1CCC(n2nnc3cc(F)ccc32)CC1
-8.2%	O=C(NNS(=O)(=O)c1ccccc1)c1cc2cc3ccccc3nc2s1
-15.2%	Cc1ccc(C)n1-n1cnc2sc(-c3ccccc3)cc2c1=O
-7.3%	COc1ccc(-c2nn(C)c(=O)c3ccccc23)cc1NS(C)(=O)=O
-5.0%	CCOc1ccc(NC(=O)c2cc3c(n(-c4ccc(OC)cc4)c2=O)CC(C)(C)CC3=O)cc1
-9.7%	O=C(Nc1nc(-c2ccccc2)cs1)c1cccs1
-7.6%	Cc1cccc(N2Cc3ccccc3C2=NC(=O)c2ccc(Cl)nc2)c1
4.5%	CCN(CC)CC(C)OC(=O)c1cc(OC)c(OC)c(OC)c1 (stereo unspecified)

29 compounds already listed, arranged by formula weight, largest number first.
GCN5L2 inh	Structure
-5.0%	CCOc1ccc(NC(=O)c2cc3c(n(-c4ccc(OC)cc4)c2=O)CC(C)(C)CC3=O)cc1
-5.5%	Nc1cc(=O)[nH]c(SCC(=O)N2CCN(S(=O)(=O)c3ccc4ccccc4c3)CC2)n1
-3.0%	O=C(COc1ccc(Cl)cc1Cl)Nc1ccc(C(=O)OC2CCCCC2)cc1
-6.6%	CCCCOc1ccc(C(=O)Nn2c(-c3cccs3)nc3ccccc3c2=O)cc1
0.1%	COc1ccc(Cl)cc1NC(=O)CN1CCC(n2nnc3cc(F)ccc32)CC1
-0.9%	O=C(C1CCN(S(=O)(=O)N2CCC3(CC2)OCCO3)CC1)N1CCCCC1
-2.5%	O=C(NC1CCCC1)C1CCN(S(=O)(=O)c2cccc3cccnc23)CC1
-1.9%	COc1ccc(C(=O)NC2CCN(C(=S)Nc3ccc(C)cc3)CC2)cc1
-8.2%	O=C(NNS(=O)(=O)c1ccccc1)c1cc2cc3ccccc3nc2s1
-2.8%	CCOC(=O)C1CCN(S(=O)(=O)c2cc(Cl)c(C)cc2OC)CC1
-8.9%	Fc1ccc(NC(=S)Nc2ccccc2N2CCOCC2)cc1Cl
-3.0%	C=CCN=C1S/C(=C\N(C)C)C(=O)N1S(=O)(=O)c1ccc(C)cc1
-7.3%	COc1ccc(-c2nn(C)c(=O)c3ccccc23)cc1NS(C)(=O)=O
-4.3%	CN(C)S(=O)(=O)c1cccc(NC(=O)c2cc3ccccc3o2)c1
-1.5%	CCc1ccc(S(=O)(=O)NCCc2cn3ccsc3n2)s1
-5.1%	O=C(Nc1nccs1)C1CC(=O)N(CCc2ccc(F)cc2)C1 (stereo unspecified)
-4.9%	Cn1c(C(=O)OCC(=O)NCc2ccc(F)cc2)cc2occc21
4.5%	CCN(CC)CC(C)OC(=O)c1cc(OC)c(OC)c(OC)c1 (stereo unspecified)
-15.2%	Cc1ccc(C)n1-n1cnc2sc(-c3ccccc3)cc2c1=O
-6.7%	Cc1csc(NC(=O)CS(=O)(=O)Cc2ccccc2)n1
-11.9%	O=C(NCCCN1CCCC1=O)Nc1ccccc1Cl
-3.0%	COC(=O)CNC(=O)C(C)NC(=O)OCc1ccccc1 (stereo unspecified)
-9.7%	O=C(Nc1nc(-c2ccccc2)cs1)c1cccs1
-4.9%	CCOc1nc(C)ccc1-c1noc(-c2ccccn2)n1
-1.5%	COc1cc2[nH]c(=S)n(C3CC3)c(=O)c2cc1OC
-29.5%	Cc1cccc(N(O)C(=O)Nc2cccc(Cl)c2)c1
-10.1%&-14.2%&-8.1%	O=C1CN(/N=C/c2ccc([N+](=O)[O-])o2)C(=O)N1
3.3%	CNC(=O)n1cc(C)c(-c2cccs2)n1
19.6%	Cn1nc(C(F)(F)F)cc1C(=O)O

(more compounds)
GCN5L2 inh	Structure
-3.5%	COCc1ccc(C(=O)N(C)CC2CCCN(CCc3ccc(Cl)cc3)C2)o1 (stereo unspecified)
?	COc1ccc(-c2csc(N3C(=N)SCC3=O)n2)cc1
-5.9%	Cc1cc(C)c(NC(=O)c2cc(=O)c3ccccc3o2)c(C)c1
-13.7%	COc1cccc(NC(=O)NCCCSC2CCCCC2)c1
2.0%	CCC(=O)c1ccc(N2CCCC2)c(F)c1
-5.3%	O=C(CNCc1cccs1)Nc1ccc(N2CCCCCC2)cc1
0.6%	O=C(CCNC(=O)c1ccc([N+](=O)[O-])cc1)Nc1ccccc1N1CCCCC1
-1.0%	COc1ccc(C(C)=O)cc1CN1C(=O)NC(c2ccccc2)(c2ccccc2)C1=O
1.3%	C=CCn1c(N2CCCC2)nc2c1c(=O)n(C)c(=O)n2C
-1.8%	O=C(Nc1cccc(-n2cnnn2)c1)c1ccc(C(F)(F)F)cc1
-5.9%	CCOC(=O)c1cccc(NC(=O)CCNS(=O)(=O)c2ccc3c(c2)CCN3C(=O)CC)c1
-2.4%	Cc1ccc(S(=O)(=O)N(C)CCCC(=O)Nc2cc(C)ccc2C)cc1

Of the compounds above, these contain a CF3 group.
GCN5L2 inh	Structure
-10.9%	O=C(Cn1cc(SCc2ccc(C(F)(F)F)cc2)c2ccccc21)N1CCOCC1
19.6%	Cn1nc(C(F)(F)F)cc1C(=O)O
-1.8%	O=C(Nc1cccc(-n2cnnn2)c1)c1ccc(C(F)(F)F)cc1

The list continues:
GCN5L2 inh	Structure
-15.5%	CCc1ccc(OCC(=O)O/N=C(\N)c2ccncc2)c(Br)c1
-2.7%	CC(C)(C)c1ccc(C(=O)NCCOc2ccccc2)cc1
-9.0%	N#CC1(NC(=O)CSc2nc3ccc([N+](=O)[O-])cc3s2)CCCCC1
-5.9%	COc1ccc(CCNC(=O)CCSc2nc(-c3ccco3)cc(C(F)(F)F)n2)cc1
-3.0%	CC(=O)Nc1ccccc1-c1nc2ccccc2n(CC(=O)Nc2cccc(C(F)(F)F)c2)c1=O
-4.1%	O=C(COC(=O)c1ccc[nH]c1=O)NC1CCCCCCC1
1.7%	CC(C)(C)OC(=O)C[C@H]1C/C=C\C[C@@H](CC(=O)N[C@H](CO)Cc2ccccc2)C(=O)N2CCC[C@H]2COC1=O
-1.2%	COCCN(C(=O)c1cc2c(s1)CCCCC2)c1c(N)n(CC(C)C)c(=O)[nH]c1=O
3.3%	O=C(NCc1ccc2c(c1)OCO2)C1CC(c2ccc(Cl)c(Cl)c2)=NO1 (stereo unspecified)
-3.8%	COc1ccc(-n2c(SCC(=O)N3CCN(c4ccccc4)CC3)nc3c(c2=O)SCC3)cc1
-5.5%	Cc1cc(C)n(C(=O)CN2C(=O)COc3ccccc32)n1
-2.3%	CCOc1ccc(S(=O)(=O)N2CCN=C2c2ccccc2)cc1
-17.7%	Cc1ccc(/C=N/NC(=O)c2ccc(Br)o2)s1
-12.3%	O=C(/C=C/c1ccco1)NC(=S)Nc1ccccn1
3.4%	Cc1ccc(S(=O)(=O)N(C)C)cc1NC(=O)C(C)Sc1ccccc1 (stereo unspecified)
-11.9%	Cc1ccc(C(=O)CCC(=O)Nc2cccc(C(F)(F)F)c2)cc1
-2.2%	CC(=O)Nc1ccc(C(=O)OCC(=O)N2CC3(C)CC2CC(C)(C)C3)cc1 (stereo unspecified)
0.7%	Cc1ccc(NC(=O)c2ccc3c(c2)C(=O)N(c2ccccc2C)C3=O)nc1
-8.2%	COc1ccc(CCNC(=O)CSc2n[nH]c(-c3ccccc3Cl)n2)cc1OC
-1.2%	CC(C)CN(CC(C)C)S(=O)(=O)N1CCC(C(=O)NC2CCCCCCC2)CC1
2.6%	Cc1c(C(=O)Nc2ccccn2)oc2ccc(Br)cc12
-0.2%	O=C(NCC12CC3CC(CC(C3)C1)C2)c1nc2ncccn2n1
-2.7%	CCOC(=O)c1cnn(-c2ccc(F)cc2)c1N
-13.7%	Clc1ccc(-c2nnc3sc(Cc4cccs4)nn23)cc1
0.5%	CC1CCc2[nH]c3ccc(C(=O)O)cc3c2C1 (stereo unspecified)
29.0%	O=C(CN(c1ccccc1)S(=O)(=O)c1ccccc1)N/N=C/c1ccco1
-1.9%	O=C(c1ccc2c(c1)OCO2)N1CCCN(C(=O)c2ccc3c(c2)OCO3)CC1

Some of the compounds tested, and most or all hits are left out here.
